Bioassay records deposited in PubChem BioAssay by several laboratories.
Hsc70 ATP site: Hsc70 inhibitors, probe displacement, primary screen, biochemical, fluorescence polarization (AID 568); displacement, % at 20 µM, or IC50 in µM where a hit was titrated; Hsc70 fluorescence polarization, probe displacement; higher % means a stronger effect; strong numbers were not always called active; 83,000 tested, under 10 active;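 active = displacement above 50% without optical interference and an IC50 on retest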;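 note: ATPase domain with a fluorescein-tagged ATP probe; 0% = vehicle and 100% = excess ADP; read after one hour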
MT1-MMP reporter: MT1-MMP gene expression reporter suppression – cell-based, luciferase reporter, luminescence (AID 618); MT1-MMP promoter luciferase reporter cells, luminescence; 87,000 tested, 0.62% active; calls from a first round at 10 µM; hits with a dose series show EC50 in µM;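 active = over half of the reporter light lost at 10 µM or EC50 under 50 µM; inactive = the rest and hits that failed the dose series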;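 note: actives suppress MT1-MMP promoter-driven transcription so potencies describe inhibitors; HT1080 fibrosarcoma cells; overnight exposure; toxic or luciferase-blocking compounds were not removed from the actives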
WNV NS2B-NS3 inh: blocks West Nile virus NS2B-NS3 protease activity. 65,000 tested, 0.18% active. P06935. AID 577. z-score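 (tested at a level between 10 and 100 µM)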. WNV NS2B-NS3 protease, fluorogenic substrate Ex360/Em465; stronger effect = lower value;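 active = z-score at -3 or under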;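 note: score is relative to mean and spread of the compound wells of a plate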
Target sequence (P06935 1371-1501 limits assumed): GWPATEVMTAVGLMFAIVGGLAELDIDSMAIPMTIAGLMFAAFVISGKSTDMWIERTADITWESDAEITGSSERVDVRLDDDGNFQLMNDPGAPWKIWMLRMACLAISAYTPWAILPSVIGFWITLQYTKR
Target sequence (P06935 1502-1679 limits assumed): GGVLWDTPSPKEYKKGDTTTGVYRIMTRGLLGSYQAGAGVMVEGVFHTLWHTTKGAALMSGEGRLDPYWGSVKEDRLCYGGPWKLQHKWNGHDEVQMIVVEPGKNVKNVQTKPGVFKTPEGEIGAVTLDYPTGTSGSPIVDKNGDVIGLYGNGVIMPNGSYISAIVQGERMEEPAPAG
Starred values were filed as active, the others as inactive; i = inactive; . = not tested or not shown; & = joins results of further samples. This is a subset, so the mix of outcomes need not match the whole.

smiles	Hsc70 ATP site	MT1-MMP reporter	WNV NS2B-NS3 inh
O=C(Cn1nnc(-c2ccc(OCc3ccccc3F)cc2)n1)N1CCOCC1	2.0%	i	-0.97
COCc1nnc(NC(=O)c2sc3ccccc3c2Cl)s1	-1.3%	i	-0.15
NC(=O)C1CCN(C2OC(=O)c3ccccc32)CC1 (stereo not given)	-7.9%	i	0.32
CCC(c1nnnn1C1CCCC1)N1CCN(Cc2ccccc2)CC1 (stereo not given)	-5.4%	i	.
CCOc1ccccc1NC(=O)NC1(C(=O)N2CCN3CCCC3C2)CCCCC1 (stereo not given)	-6.3%	i	0.53
CN(c1ccccc1C(=O)Nc1cccc(C(F)(F)F)c1)S(C)(=O)=O	-1.2%	i	-0.03
COc1ccccc1N1CCN(C(=O)C2C3C=CC4(CN(Cc5ccccc5Cl)C(=O)C24)O3)CC1 (stereo not given)	0.6%	i	-0.86
CC(=O)c1ccc(NS(=O)(=O)c2cccc(C)c2)cc1	-4.4%	i	-0.54
Cc1csc(/C(=N\O)c2csc(C)n2)n1	-5.4%	i	-0.72
CCOc1ccc(S(=O)(=O)N2CCN(c3ccccc3OC)CC2)c2cccnc12	-6.8%	i	-0.31
CC(C)c1ccc(NC(=O)C2CC(=O)N=C(N)S2)cc1 (stereo not given)	1.8%	i	0.49
CCN1CCN(S(=O)(=O)c2ccc3[nH]c(=O)oc3c2)CC1	-0.3%	i	-0.02
CCO/C=C/C(=O)N(C)CCC#N	-1.8%	i	-1.1
Cc1oc(-c2ccccc2F)nc1CN1CCC(C(=O)NC2CCCCCCC2)CC1	-5.0%	i	1.6
O=C(COC(=O)c1cccnc1Cl)c1ccc(Cl)cc1Cl	-1.4%	i	.

Further records.
smiles	Hsc70 ATP site	MT1-MMP reporter	WNV NS2B-NS3 inh
CS(=O)(=O)N(CC(=O)NCC1CCCO1)c1cc(Cl)ccc1Cl (stereo not given)	-3.3%	i	0.04
CCOc1ccc(C2C=C(c3ccc(F)cc3)Nc3ncnn32)cc1 (stereo not given)	30%	i	0.67
O=C(CC(c1ccc(F)cc1)c1ccco1)N1CCOCC1 (stereo not given)	0.9%	i	-0.63
CCCCC(C(=O)NC(=O)NCc1ccccc1)N1C(=O)c2ccccc2C1=O (stereo not given)	-5.1%	i	.
Cc1ccc(C(OC(=O)c2ccco2)C(=O)NCc2cccs2)cc1 (stereo not given)	-4.8%	i	-0.48
Cc1ccc(S(=O)(=O)N2CCCC(NC(=O)N3CCN(c4ccccc4)CC3)C2)cc1 (stereo not given)	3.9%	i	2.3
COc1ccc(-n2cnnc2SCC(=O)NCc2cccs2)cc1	1.6%	i	.
O=C(Nc1ccc(O)cc1)c1cc(S(=O)(=O)N2CCCC2)ccc1Cl	5.8%	i	0.03
CCOC(=O)c1cccc(NC(=O)CSc2nc3ccccc3c(=O)n2CCOC)c1	0.7%	i	-1.1
C=CCSc1nnc2c(n1)OC=Nc1ccc(Br)cc1-2	5.7%	i	0.8
CC(C)(C)n1nnnc1CN1CCSCC1	3.5%	i	.
COc1ccc(C2C(C(=O)N3CCCCC3)CC(=O)N2c2ccc(OC)cc2)cc1 (stereo not given)	2.0%	i	.
C/C(=N/O)c1cc(C(C)(C)C)c(O)c(C(C)(C)C)c1	3.4%	i	.
CCC1CCc2c(sc3ncnc(N4CCOCC4)c23)C1 (stereo not given)	4.4%	i	-0.65
CN(C)S(=O)(=O)CC12CCC(CC1=O)C2(C)C (stereo not given)	1.1%	i	-0.22

Quoted at random: 2 compounds from above, in no set order.
smiles	Hsc70 ATP site	MT1-MMP reporter	WNV NS2B-NS3 inh
CCOC(=O)c1cccc(NC(=O)CSc2nc3ccccc3c(=O)n2CCOC)c1	0.7%	i	-1.1
C=CCSc1nnc2c(n1)OC=Nc1ccc(Br)cc1-2	5.7%	i	0.8

Continued:
smiles	Hsc70 ATP site	MT1-MMP reporter	WNV NS2B-NS3 inh
CCOc1ccc(OCC)c(NC(=O)c2[nH]c(C)c(C(C)=O)c2C)c1	4.0%	i	0.71
Cn1c(=O)c2c(n3cnnc13)-c1ccccc1CC21CCCC1	6.5%	i	.
C[C@@H]1C[C@H](O)c2cc(Cl)ccc2N1	-3.7%	i	-0.13
COCCCNC(=O)c1c(N)n(-c2cccc(S(N)(=O)=O)c2)c2nc3ccccc3nc12	1.7%	i	3
Cc1cc(=O)n(CC(C)C)c(O)c1C#N	-5.8%	i	0.38
O=C(Cn1cc2c(n1)CCCC2)Nc1cc(-c2cccc(Cl)c2)no1	2.9%	i	-0.82
CCSc1nc2c(c(=O)[nH]1)C(c1ccncc1)C(C(=O)OC(C)C)=C(C)N2 (stereo not given)	1.9%	i	-0.6
Cc1cc(C(=O)NCc2cccnc2)cs1	5.2%	i	3.2
Cc1nnc(-c2cnn(C)c2N)n1Cc1ccccc1	1.5%	i	.
COc1ccc(Br)cc1C1N2CC3(C)CN1CC(C)(C2)C3=O (stereo not given)	-6.1%	i	0.08
N#CC1=C(N)OC2=C(C(=O)CCC2)C1c1ccncc1 (stereo not given)	-10%	i	0.1
CCc1nnc(NC(=O)C2Cc3ccccc3C(=O)O2)s1 (stereo not given)	-1.9%	i	0.57
CCCn1c(SCC(=O)Nc2cccc(NC(C)=O)c2)nnc1C(C)C	1.5%	i	-0.97
COc1cc(OC)c(-c2nn3c(-c4ccco4)nnc3s2)cc1OC	-0.1%	i	-1
CCOC(=O)/C(C(C)=O)=C1\OC(=O)c2ccccc21	-1.8%	i	-0.55

Later entries:
smiles	Hsc70 ATP site	MT1-MMP reporter	WNV NS2B-NS3 inh
COc1ccccc1N(CC(=O)Nc1cccnc1)S(C)(=O)=O	-4.7%	i	-0.74
COC(=O)c1c(N=CN(C)C)c(C#N)c2n1CCCC2	8.6%	i	-0.99
Cc1cc(/C=N/n2cnnc2)c(C)n1-c1ccc(OCc2ccc(F)cc2)cc1	-7.3%	i	-0.64
CCOC(=O)Cn1nc(-c2ccc(Cl)cc2)ccc1=O	-4.7%	i	1.8
COc1cc(OC)c(NC2c3ccccc3C(=O)N2c2cc(C)ccn2)cc1Cl (stereo not given)	-0.5%	i	0.88
Cn1c(=O)n(Cc2ccccc2)c2ccccc21	-4.6%	i	2.4
COc1ccc2c(c1)C(=O)N(c1ccccc1)C(=O)C2	4.4%	i	.
COc1cc2c(C#N)c(N3CCN(C)CC3)nc(N)c2c(N)n1	4.2%	i	.
CCOC(=O)C1=C(N)n2c(s/c(=C\c3ccco3)c2=O)=C(C(=O)OCC)C1c1ccco1 (stereo not given)	2.5%	i	-0.97
Cc1ccc2[nH]c3c(N4CCN(Cc5ccc6c(c5)OCO6)CC4)ncnc3c2c1	-2.5%	i	-0.28
Cc1nnc(SCC(=O)Nc2sc3c(c2C#N)CCCC3)[nH]c1=O	-2.3%	i	1
Clc1ccc(Cn2cc(/C=N/n3cnnc3)c3ccccc32)cc1	-4.3%	i	-0.84
CC1=CC(C)(C)N2C(=O)C3(SCC(=O)N3c3ccc(F)cc3)c3cc(C)cc1c32 (stereo not given)	1.6%	i	.
Cc1cc(=O)n(CC(C)O)c(O)c1C#N (stereo not given)	-1.5%	i	-1.1&0.41
COCc1nc(-c2ccc(-c3ccccc3)nc2OC)no1	-4.3%	i	-0.65

(continued)
smiles	Hsc70 ATP site	MT1-MMP reporter	WNV NS2B-NS3 inh
COc1ccc(/C=C/C(=O)c2ccc[nH]2)c(OC)c1OC	0.4%	i	.
Cc1ccc2c(c1)NC(=O)C(CC(=O)NCCCN1CCCC1=O)O2 (stereo not given)	6.4%	i	0.42
C=CCn1c(C)cc(C(=O)COC(=O)C2CC(=O)N(Cc3ccccc3)C2)c1C (stereo not given)	4.2%	i	0.86
O=C(CCn1nnc2ccccc2c1=O)N[C@@H](Cc1ccccc1)C(=O)O	-2.6%	i	-1.1
c1ccc(C2=Nn3c(nnc3-c3ccncc3)SC2)cc1	-2.6%	i	-0.73
COc1ccc(N2C(=O)CC(N3CCCC4CCCCC43)C2=O)cc1 (stereo not given)	-5.7%	i	-0.26
COc1cccc(-c2nc(CS(=O)(=O)CC(=O)NCCCN3CCc4ccccc4C3)c(C)o2)c1	0.9%	i	0.47
Cc1ccnc(SCCn2c(N3CCN(Cc4ccccc4)CC3)nc3c2c(=O)[nH]c(=O)n3C)n1	-4.8%	i	-0.33
O=C(c1ccco1)N1CCN(c2cc(C(F)(F)F)nc3ncnn23)CC1	2.8%	i	0.4
CCCc1nnc(NC(=O)CCCC(=O)O)s1	2.7%	i	0.2
CS(=O)(=O)N1CCN(c2ccccc2NC(=O)c2ccc3ccccc3c2)CC1	-0.6%	i	.
O=C(NCc1ccccn1)C1CCN(Cc2cnn(-c3ccccc3)c2-n2cccc2)CC1	0.8%	i	.
C=CCNC(=O)c1cc(-c2ccccc2O)on1	0.1%	i	-0.22
Cc1cccc(N(CC(N)=O)S(C)(=O)=O)c1C	-3.0%	i	1.6
c1cc(CNc2ccc3c(c2)OCCO3)ccn1	3.9%	i	0.9

(list continues)
Molecule	Hsc70 ATP site	MT1-MMP reporter	WNV NS2B-NS3 inh
Cc1ccc(-c2c3c(=O)n(C)c(=O)n(C)c3cn2Cc2ccccn2)cc1	6.4%	i	0.0051
CCOc1nc(NCCc2ccc(OC)c(OC)c2)nc(N2CCN(c3ccc(OC)cc3)CC2)n1	-1.8%	i	.
Cc1ccc(-c2nn3c(C)nnc3s2)cc1NC(=O)c1ccco1	1.6%	i	0.09
CCc1n[nH]c(=O)n1Cn1c(CC)n[nH]c1=O	-4.8%	i	-0.41
Nc1cccc2c1C(=O)N(C(=O)c1ccc(S(=O)(=O)N3CCCCCC3)cc1)C2=O	12%	i	0.19
CCOc1ccc(C(Nc2ccc(C)cc2)P2(=O)OCCCO2)cc1 (stereo not given)	2.5%	i	.
O=C(Nc1cccc(S(=O)(=O)c2cccc(NC(=O)C3CC3)c2)c1)C1CC1	7.4%	i	1.1
COC(=O)c1ccsc1NC(=O)C1=COCCO1	2.1%	i	-0.17
CC(C)NC(=O)c1cnc(N2CCN(c3ccccn3)CC2)c2ccccc12	9.3%	i	0.57
COc1cc(OC)cc(N(C(=O)c2ccco2)C(C(=O)NC2CCCC2)c2ccc(N(C)C)cc2)c1 (stereo not given)	-0.7%	i	-0.8
Cc1nnc(SCC(=O)Nc2ccccc2N2CCOCC2)s1	1.9%	i	-0.89
COC(=O)[C@H](Cc1ccccc1)NC(=O)Nc1ccc(S(N)(=O)=O)cc1	1.8%	i	-0.25

(continued)
Molecule	Hsc70 ATP site	MT1-MMP reporter	WNV NS2B-NS3 inh
CCC(C(=O)O/N=C(\N)c1ccc(C)cc1)c1ccccc1 (stereo not given)	2.6%	i	.
COC(=O)c1ccc(CC(=O)c2ccc(O)cc2O)o1	-24%	i	0.54
O=C1C2C3C=CC(C3)C2C(=O)N1c1ccc2ccccc2n1 (stereo not given)	6.3%	i	.
CCC(=O)N(Cc1cc2ccccc2[nH]c1=O)C(C)C	7.0%	i	0.78
NC(=S)N/N=C/c1ccc(-c2ccc(Cl)c(Cl)c2)o1	-0.7%	i	.
O=C(CC(C(=O)N1CCc2ccccc21)n1ccnc1)NCC1CCCO1 (stereo not given)	-2.8%	i	-0.31
C=CCn1c(NC(=O)c2ccc(Br)o2)c(S(=O)(=O)c2ccccc2)c2nc3ccccc3nc21	-3.3%	i	.
O=C(Nc1ccc2c(c1)OCO2)Oc1ccccc1	5.2%	i	-0.08
COc1ccc(NC(=O)c2ccc(NS(=O)(=O)c3c(C)noc3C)cc2)cc1OC	-4.0%	i	0.78
CCOc1ccc(Nc2oc(-c3ccco3)nc2C#N)cc1	-8.0%	i	2
O=C(COC(=O)CCC(=O)c1cccs1)Nc1cccc(S(=O)(=O)N2CCOCC2)c1	-3.1%	i	.
CC(C)(C)n1nnnc1C(c1cccs1)N(Cc1cccnc1)Cc1ccco1 (stereo not given)	2.5%	i	.

More entries follow.
Molecule	Hsc70 ATP site	MT1-MMP reporter	WNV NS2B-NS3 inh
Cc1ccc(Cl)cc1N1CCN(C(=O)CN2C(=O)c3cccc4cccc2c34)CC1	2.6%	i	-0.35
COc1cc(CC(=O)Nc2ccc(S(=O)(=O)Nc3ncccn3)cc2)cc(OC)c1OC	3.8%	i	-0.5
COCCNC(=O)C(c1cccs1)N(C(=O)Cn1nnc2ccccc21)c1cccc(C(C)=O)c1 (stereo not given)	-2.6%	i	-1.4
COc1ccc(-c2c3c(nc4sc(C(=O)Nc5ccccc5)c(N)c24)CCC3)cc1	2.2%	i	.
CCC1CCCCN1S(=O)(=O)c1ccc(C(=O)Nc2nnc(-c3ccccc3Cl)o2)cc1 (stereo not given)	0.8%	i	2

4 of the compounds above, field by field:
SMILES: Cc1ccc(C(OC(=O)c2ccco2)C(=O)NCc2cccs2)cc1 (stereo not given)
  Hsc70 ATP site: -4.8%	MT1-MMP reporter: i	WNV NS2B-NS3 inh: -0.48

SMILES: C=CCn1c(NC(=O)c2ccc(Br)o2)c(S(=O)(=O)c2ccccc2)c2nc3ccccc3nc21
  Hsc70 ATP site: -3.3%	MT1-MMP reporter: i	WNV NS2B-NS3 inh: .

SMILES: Cc1cc(/C=N/n2cnnc2)c(C)n1-c1ccc(OCc2ccc(F)cc2)cc1
  Hsc70 ATP site: -7.3%	MT1-MMP reporter: i	WNV NS2B-NS3 inh: -0.64

SMILES: CCCCC(C(=O)NC(=O)NCc1ccccc1)N1C(=O)c2ccccc2C1=O (stereo not given)
  Hsc70 ATP site: -5.1%	MT1-MMP reporter: i	WNV NS2B-NS3 inh: .
